# Source: PubChem
# Biofilm kill mix: mixtures killing C. albicans biofilm. C. albicans biofilm persisters + clotrimazole, fluorescence viability; primary screen in compound mixtures of four per well. inhibition, % at 7.6 µM. 120,000 tested, 0.02% active;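 active = inhibition above 30.3% in the primary screen of four-compound pools, then above 30% when the compound was retested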;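 note: compounds exposed to preformed 24 h biofilms for 48 h; the number belongs to the whole pool; some results filed as inactive read as strong as hits; inactives centre near 12; 0% = biofilm with clotrimazole alone and 100% = kill control; retested singly at about 60 µM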
#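 Probe or stimulus – Clotrimazole 50 µg/mL co-treatment · System – C. albicans biofilms · Schedule – 24 h biofilm formation, then 48 h compound exposure, 37 °C · Evaluation – percent inhibition of biofilm viability · Technique – 2-h Alamar Blue fluorescence, 535/590 nm excitation/emission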
# Active calls of the source: *. Only part of the results is shown; count on the stated rates, not on these rows.
SMILES	Biofilm kill mix
CC(C)c1ccc(S(=O)(=O)c2cn(Cc3ccc(F)cc3)c3cc4c(cc3c2=O)OCO4)cc1	21
CCOc1cc(C2NC(=S)NC(C)=C2C(=O)Nc2ccccc2)ccc1O (stereo unspecified)	14
O=C(CSc1nnc(SCc2ccccc2)s1)N/N=C/c1ccc(C(=O)O)cc1	18
Cc1ccnc(NC(=O)c2ccc(Cl)c(NC(=O)CCc3ccccc3)c2)c1	0
COC(=O)c1sc(NC(=O)/C=C/c2ccc(C)cc2)nc1C	7
CCOc1ccc(-c2ccc(/C=C3/C(=N)N4C(C)=CSC4=NC3=O)o2)c([N+](=O)[O-])c1	25
CC(SCC(=O)NC12CC3CC(CC(C3)C1)C2)C(=O)O (stereo unspecified)	14
CCOc1ccc2c(c1)C(c1ccc(C)cc1)=NNC(c1ccc(C)cc1)=N2	15
CC(=O)c1ccc(-c2nnc(CCC(=O)N(C)Cc3c(C)nc4ccccn34)o2)s1	14
Nc1nccc(-c2ccc(-n3cnc4ccccc43)cc2)n1	12
COc1ccc(OC)c(S(=O)(=O)Nc2cccc(-c3ccc4nncn4n3)c2)c1	16
CCN(C(=O)CSc1nnc2c3ccccc3n(CC)c2n1)C1CCS(=O)(=O)C1 (stereo unspecified)	23
O=C(N/N=C\c1ccco1)c1cncc(Br)c1	-4
NC(=S)N/N=C/c1c(O)ccc2ccccc12	8
COc1ccc(NC(=O)CN2CCN(c3nc(-c4cccc(OC)c4)cs3)CC2)cc1	19
Cc1csc(SCC(=O)NC(=O)NC(C)(C)C)n1	14
Cc1ccc(S(=O)(=O)N2CCC(=O)N(C(COCc3cccc(C(F)(F)F)c3)Cc3ccccc3)CC2)cc1 (stereo unspecified)	22
CCOC(=O)c1ccc(NC(=O)NCc2c(C)nn(CC)c2C)cc1	16
O=S(=O)(Nc1ccccc1N1CCCCC1)c1ccc(F)cc1	-1
COC(=O)c1cc2ccsc2n1Cc1cccc(F)c1	8
Cc1cccc(C(=O)NC(=S)NNC(=O)COc2c(C)cccc2C)c1	8
Cc1ccc(NC(=O)COC(=O)/C=C/c2cccs2)c(C)c1	14
Oc1[nH]c(=S)sc1C=C1N=c2ccccc2=N1	33
CCN(CC)CCN(C(=O)c1c(F)cccc1F)c1nc2cc(C)cc(C)c2s1	8
NS(=O)(=O)c1ccc(NC(=O)COC(=O)CCc2ccc(S(=O)(=O)N3CCOCC3)cc2)cc1	21

# At a glance, three of the compounds above:
SMILES	Biofilm kill mix
CC(C)c1ccc(S(=O)(=O)c2cn(Cc3ccc(F)cc3)c3cc4c(cc3c2=O)OCO4)cc1	21
CCOc1cc(C2NC(=S)NC(C)=C2C(=O)Nc2ccccc2)ccc1O (stereo unspecified)	14
O=C(CSc1nnc(SCc2ccccc2)s1)N/N=C/c1ccc(C(=O)O)cc1	18

# (next part)
SMILES	Biofilm kill mix
COc1ccc(N2CCN(C(=O)c3ccc(NS(=O)(=O)c4cccs4)cc3)CC2)cc1	24
CCOc1cc(Cl)c(NC(C)=O)cc1OCC	13
CN(CCOc1ccccc1)C(=O)c1cc([N+](=O)[O-])cc([N+](=O)[O-])c1	23
COC(=O)c1ccsc1NC(=O)c1ccc(Cl)s1	26
c1ccc2c(CNc3ccc(CNc4ncn[nH]4)cc3)cccc2c1	12
CCCOc1ccccc1NC(=O)Nc1ccccc1Cl	17
Cc1ccc(OCC(=O)NCCc2c[nH]c3ccccc23)cc1	23
COC(=O)c1ccc2nc(C)cc(Nc3ccccc3C)c2c1	13
COc1ccccc1OCCC(=O)Nc1nc(C)cs1	15
Cc1ccc(C(=O)C[n+]2cccc3cc(C)ccc32)cc1	19
CCOC(=O)C1CN(S(C)(=O)=O)c2cc(CC(=O)OC)ccc2O1 (stereo unspecified)	7
NC[C@H]1O[C@H](O[C@H]2[C@H](O)[C@@H](O[C@H]3O[C@H](CO)[C@@H](O)[C@H](N)[C@H]3O)[C@H](N)C[C@@H]2N)[C@H](N)C[C@@H]1O	-5
Cn1c(NNC(=O)C(c2ccccc2)c2ccccc2)cc(=O)n(C)c1=O	25
C/C(=N/NS(=O)(=O)c1ccc(C)cc1)c1c(O)c2ccccc2oc1=O	24
O=C(NCCCn1ccnc1)c1ccc(S(=O)(=O)Nc2ccccc2)cc1	22
Cc1cnccc1NC(=O)c1cccs1	13
COc1cc(/C=C/C(=O)OCC(=O)c2c(N)n(C)c(=O)n(C)c2=O)ccc1O	17
CC(C)(C)OC(=O)N1CCC(CNC(=O)c2ccccc2)CC1	15
COc1ccccc1NS(=O)(=O)c1cccc(C(=O)NCc2ccco2)c1	3
COc1ccc(CCNc2cc(C)nc3c(-c4ccc(Cl)cc4)c(C)nn23)cc1OC	16
COc1cc(-c2nc3ccccc3c(=O)n2N)cc(OC)c1OC	14
COc1cccc(C(=O)/C=C/Nc2ccc(NC(C)=O)cc2)c1	11
CSc1nc2nc(C)c(C/C=C/c3ccccc3)c(=O)n2[nH]1	20
COc1ccccc1N1CCN(/N=C/c2cc(OC)c(OC)c(OC)c2)CC1	18
Cc1nn(-c2cccc(C(=O)O)c2)c(C)c1[N+](=O)[O-]	5
COc1ccccc1N(CC(=O)N/N=C/c1ccc(C(=O)O)cc1)S(=O)(=O)c1ccc(C)cc1	26
S=c1[nH]nc(-c2cccnc2)n1-c1ccc2c(c1)OCCO2	9
O=C(COC(=O)c1ccc[nH]c1=O)Nc1ccc2c(c1)OC(F)(F)O2	29
CCCCNS(=O)(=O)c1ccc(NC(=O)Cc2ccccc2[N+](=O)[O-])cc1	5
CCc1cccc(CC)c1NC(=O)c1ccccc1CCc1ccccc1	16
COC(=O)c1nn(-c2ccccc2)c(=O)cc1Sc1ccc(Cl)cc1	-4
CNC(=O)COc1ccc(S(=O)(=O)Nc2ccc(OC)cc2)cc1	12
CC1CCC(NC(=O)c2ccc(NC(=O)c3ccc(=O)[nH]c3)cc2)CC1 (stereo unspecified)	5
O=C(O)c1ccccc1/C=N/NC(=O)C1CCCCC1	18
COc1ccc(CCNC(=O)c2ccc3c(SCC(=O)O)c4c(nc3c2)CCCC4)cc1OC	15
CCC(=O)NCc1csc(-c2cccs2)n1	18
CCc1ccc(NC(=S)N(Cc2ccc(Cl)cc2)Cc2ccc(C(=O)O)cc2)cc1	12
CCNC(=S)N=Nc1c(O)[nH]c2ccc(C(C)C)cc12	18
COc1ccc([N+](=O)[O-])cc1NC(=O)CSc1nccc(C)n1	10
COC(=O)c1cccc(NC(=O)CCc2ccccc2)c1	11
O=C(CN1C(=O)S/C(=C\C=C\c2ccccc2)C1=O)Nc1ccc(C(=O)O)cc1	22
Cc1cccn2c(NC(=O)c3cccs3)c(-c3ccccc3)nc12	3
O=[N+]([O-])c1nn(-c2ccc(Cl)cc2)n(O)c1=NCc1ccncc1	7
CCn1c(SCc2nc(-c3ccccc3)no2)nnc1-c1ccco1	15
CCOC(=O)c1[nH]ncc1CN1CCCC(C(=O)c2ccc(SC)cc2)C1 (stereo unspecified)	15
COc1ccc(CCCc2n[nH]c(=S)o2)c(C)c1	25
O=C(CNC(=O)c1ccncc1)N/N=C/c1cc(Br)ccc1O	15
COc1cc(C(=O)N/N=C/c2ccc(OC)c(CN3CCN(c4ccc(F)cc4)CC3)c2)ccc1O	11
COC(=O)COc1ccc(S(=O)(=O)N2CCN(c3ccc(OC)cc3)CC2)cc1	8
Cc1ccccc1C(=O)Nc1nnc(-c2ccncc2)o1	11

# (list continues)
SMILES	Biofilm kill mix
CN(C)CCCNC(NC(=O)/C=C/c1ccccc1)C(Cl)(Cl)Cl (stereo unspecified)	3
O=C(CN1CCCC1)Nc1cc(C(F)(F)F)cc(C(F)(F)F)c1	25
CCn1ncc([N+](=O)[O-])c1C(=O)Nc1cc(C)on1	11
Cc1ccc(N(Cc2cc3ccc(C)cc3[nH]c2=O)C(=O)c2ccco2)c(C)c1	25
CCOc1ccccc1CNCc1ccc(C(=O)O)cc1	9
CCN1C(=O)C(CC(=O)Nc2ccc(OC)cc2)N(Cc2ccc(OC)c(OC)c2)C1=S (stereo unspecified)	23
CC(C)NC(=O)C12CC3CC(C1)CC(C(=O)NC(C)C)(C3)C2	16
Fc1ccc(-n2cc(CNCCc3cccnc3)c(-c3ccccc3Cl)n2)cc1	10
Cn1c(=O)oc2cc(S(=O)(=O)N3CCN(c4ccccn4)CC3)ccc21	-2
COc1ccc(CN(C)CC(=O)Nc2ccc(Cl)cc2C(F)(F)F)c(OC)c1	11
Cc1ccc(-c2nnc(Cc3ccc([N+](=O)[O-])cc3)o2)cc1	2
CCC(C)[C@H](N)c1cn([C@@H](Cc2cc3ccccc3[nH]2)C(=O)N2CCNCC2)nn1 (stereo partly specified)	24
Cc1cc(C(=O)CCl)c(C)n1CCc1ccc(Cl)cc1	11
Cc1cc2nccc(-c3ccco3)n2n1	12
CCOCc1cc(=O)[nH]c(SC)n1	15
Cc1cccn2c(=O)c(/C=C(\C#N)S(=O)(=O)c3ccccc3)c(N3CCCCC3)nc12	13
CC1CCN(c2nc3c(c(=O)[nH]c(=O)n3C)n2CC(C)CSc2nnnn2-c2ccccc2)CC1 (stereo unspecified)	13
COC/C=C/C1=CC2=CC(=O)C(C)(OC(=O)c3cnc4ccccc4n3)C(=O)C2=CN1Cc1ccccc1 (stereo unspecified)	-1
CCCCC[C@H](O)/C=C/[C@@H]1[C@@H](C/C=C\CCCC(=O)OC)[C@@H](O)C[C@H]1O	6
CC1CCC2(CC1)NC(CO)(CO)CO2 (stereo unspecified)	9
CC1Cc2ccccc2N1C(=O)CSc1nc(-c2ccccc2)cs1 (stereo unspecified)	4
C=CCn1c(-c2c(C)nc3cc(C)ccn23)n[nH]c1=S	0
O=C(COC(=O)c1cccc(S(=O)(=O)NCc2ccccc2)c1)c1ccc2c(c1)OCCO2	18
N#CCC(=O)N/N=C/c1cn(Cc2cccc3ccccc23)c2ccccc12	11
Cc1cc(=O)c2c(C)ccc(C)c2[nH]1	20

# Sorted by SMILES length (ascending): some entries from above
SMILES	Biofilm kill mix
CC(C)NC(=O)C12CC3CC(C1)CC(C(=O)NC(C)C)(C3)C2	16
N#CCC(=O)N/N=C/c1cn(Cc2cccc3ccccc23)c2ccccc12	11
Fc1ccc(-n2cc(CNCCc3cccnc3)c(-c3ccccc3Cl)n2)cc1	10
Cn1c(=O)oc2cc(S(=O)(=O)N3CCN(c4ccccn4)CC3)ccc21	-2
CCN1C(=O)C(CC(=O)Nc2ccc(OC)cc2)N(Cc2ccc(OC)c(OC)c2)C1=S (stereo unspecified)	23
O=C(COC(=O)c1cccc(S(=O)(=O)NCc2ccccc2)c1)c1ccc2c(c1)OCCO2	18
CCC(C)[C@H](N)c1cn([C@@H](Cc2cc3ccccc3[nH]2)C(=O)N2CCNCC2)nn1 (stereo partly specified)	24

# Additional results:
SMILES	Biofilm kill mix
O=C(COc1ccccc1[N+](=O)[O-])NNC(=O)Nc1cccc2ccccc12	8
CCCCCCCCOC(=O)c1c(CSC(=N)N)n(C)c2cc(Br)c(OC(C)=O)cc12	15
CCOC(=O)c1cc2c(ccn2-c2ccc(F)cc2)n1CC(=O)NC(C)(C)C	17
O=C(NC(=S)NC(c1ccccc1)c1ccncc1)c1ccccc1 (stereo unspecified)	15
CCOC(=O)C1(CC2CCCCO2)CCN(C2CCSCC2)CC1 (stereo unspecified)	8
N#C/C(=C/c1ccc(N2CCOCC2)o1)C(=O)N1CCOCC1	-14
Cc1ccc2c(CC(=O)Nc3cccc(S(=O)(=O)N4CCOCC4)c3)coc2c1	13
COc1ccc([N+](=O)[O-])cc1Nc1ncnc2ccccc12	3
O=C(N/N=C/c1cccs1)/C(=C/c1ccccc1)NC(=O)c1ccccc1	19
CC(=O)c1ccc(N(C(=O)Cn2nnc3ccccc32)C(C(=O)NC2CCCCC2)c2cn(C)nc2C)cc1 (stereo unspecified)	14
O=C(NC1CC(=O)c2sccc21)c1cccc(C(F)(F)F)c1 (stereo unspecified)	-7
NC(=O)C1=C[C@@H](c2ccccc2)C[C@@H](OCc2ccc(CO)cc2)O1	22
CC(=O)NC(NC(=S)Nc1cccc(Br)c1)C(Cl)(Cl)Cl (stereo unspecified)	21
CCOC(=O)C(NCCc1ccccc1)(NC(=O)CC)C(F)(F)F (stereo unspecified)	5
O=S(=O)(Nc1ncccn1)c1ccc(NC(=S)NCCc2ccccc2)cc1	20
COc1cccc(=O)c2c(C)n(CC(=O)c3ccccc3)c(C)c12	5
CC(=O)c1cc2c(cc1NC(=O)c1cc(C)nn1-c1ccccc1)OCO2	19
CCOC(=O)COc1ccc(S(=O)(=O)NCC2CCCO2)cc1 (stereo unspecified)	16
CC(C)(C)C(=O)Nc1nnc(-c2ccccc2)c(-c2ccccc2)n1	17
O=C(O)c1ccccc1N/N=C/c1cc(Br)cc(Br)c1O	7
Cc1c(NS(=O)(=O)c2ccc(NCCN3CCOCC3)c([N+](=O)[O-])c2)c(=O)n(-c2ccccc2)n1C	-3
COc1ccc(C)c2sc(N(CCCN(C)C)C(=O)c3ccc(S(=O)(=O)N(C)C)cc3)nc12	16
COc1ccccc1CN1C[C@@H]2C[C@@H](c3[nH]c4ccc(C)cc4c3C)N3CCC[C@@]23C1=O	18
FC(F)(F)c1ccccc1NC(=S)N1CCCC1	16
CCOc1ccc2nc(COC(=O)c3cccs3)c(C(C)=O)[n+]([O-])c2c1	13
